# High-throughput results deposited in PubChem BioAssay by Broad Institute.
# Env fusion inh = HIV envelope-mediated fusion inhibition | HeLa-JRFL Env/CEM21 cell fusion, luciferase | inhibition, % at 12.3 µM | actives 1.1% (n = 360,000) | AID 651610;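 active means mean replicate inhibition score of at least 50 and every replicate individually at or above 50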;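 further: 0% = plate neutral controls and 100% = maraviroc near 300 nM; one replicate is shown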
# * hit, by the source's call; [ ] = remark or other dose. Not all compounds are listed. The share of hits here may be higher or lower than overall.
SMILES,Env fusion inh
CO[C@@H]1CN(C)C(=O)c2cc(NC(=O)C3CCC3)ccc2OC[C@@H](C)N(C)C[C@H]1C,-1.0[16.7 µM]
COC(=O)C1=C(C)N(C)C(=NCc2ccccc2C(F)(F)F)NC1c1ccc(C(F)(F)F)cc1 (stereo unspecified),-16.6
CC=Cc1ccc2n(c1=O)C[C@@H]1[C@@H](CO)[C@H](C(=O)NCCN3CCCC3)N(C(=O)NC(C)C)[C@H]21 (mixture of isomers),-15.0[16.7 µM]
CC(C)NC(=O)Nc1ccc2c(c1)C(=O)N([C@H](C)CO)C[C@@H](C)[C@H](CN(C)Cc1ccncc1)OCCCC[C@@H](C)O2,-14.6[16.7 µM]
COCC(=O)N1C[C@H](C)[C@H](OC)CN(C)C(=O)c2ccc(NS(C)(=O)=O)cc2OC[C@H]1C,-9.5[16.7 µM]
C[C@H](CO)N1C[C@H](C)[C@@H](CN(C)C(=O)C2CCCCC2)Oc2cc(C#CCN(C)C)ccc2S1(=O)=O,-32.3[16.7 µM]
C[C@@H]1CCCCO[C@H](CN(C)C)[C@H](C)CN([C@H](C)CO)C(=O)c2cc(NC(=O)CCCN(C)C)ccc2O1,4.2[16.7 µM]
Cc1cccc(CN(C)C[C@@H]2Oc3ncc(C#CCN(C)C)cc3C(=O)N([C@H](C)CO)C[C@@H]2C)c1,-1.6[16.7 µM]
COCC(=O)Nc1ccc2c(c1)OC[C@@H](C)N(C(=O)NC(C)C)C[C@@H](C)[C@@H](OC)CN(C)C2=O,-0.4[16.7 µM]
CCNC(=O)[C@@H]1[C@@H](CO)[C@@H]2Cn3c(cccc3=O)[C@@H]2N1CC1CCCCC1,2.3[16.7 µM]
C[C@H](O)[C@@H]1C(=O)N2CCc3c([nH]c4cccc(-c5ccccc5)c34)[C@@H]2C[C@@H]1N(C)CC1CCCCC1,5.9
CCCCCn1c(C)c(CC(=O)Nc2ccc(Oc3cccnc3)c(C)c2)c2ccccc21,5.3
COCC(=O)Nc1ccc2c(c1)OC[C@@H](C)N(Cc1cccc(F)c1)C[C@@H](C)[C@H](OC)CN(C)C2=O,8.8[16.7 µM]
O=C(C[C@H]1C[C@H]2c3cc(NC(=O)c4ccc5c(c4)OCO5)ccc3O[C@H]2[C@H](CO)O1)NCc1cccnc1,-12.8[16.7 µM]
C[C@@H]1CCCCO[C@H](CN(C)C(=O)Cc2ccccc2)[C@H](C)CN([C@@H](C)CO)C(=O)c2cc(N(C)C)ccc2O1,12.5[16.7 µM]
N#CCCN1CCC(N)=NC1=NC#N,-17.5
CN1[C@@H]2c3ccc(/C=C/c4ccccc4)c(=O)n3C[C@H]1[C@H](CO)[C@H]2C(=O)NC1CCCC1,1.7[16.7 µM]
CO[C@@H]1CN(C)C(=O)c2cc(NS(=O)(=O)c3ccc(C)cc3)ccc2OC[C@H](C)N(C(=O)NC(C)C)C[C@@H]1C,64.3*[16.7 µM]
COC(=O)c1cc2c(c3c4cc(F)ccc4n(S(=O)(=O)c4ccccc4)c13)C(=O)N(Cc1ccccc1OC)C2,4.4
CCCNC(=O)N1C[C@@H](O)COC[C@H]2O[C@@H](CC(=O)N3CCC(Cc4ccccc4)CC3)CC[C@@H]21,8.4[16.7 µM]
CCCC(=O)Nc1ccc2c(c1)OC[C@H](C)N(Cc1ccccn1)C[C@@H](C)[C@@H](OC)CN(C)C2=O,4.2[16.7 µM]
CCCN(C)C[C@@H]1Oc2cc(-c3ccccc3C)ccc2S(=O)(=O)N([C@@H](C)CO)C[C@H]1C,-10.8[16.7 µM]
C[C@@H]1CN([C@@H](C)CO)C(=O)c2cc(NC(=O)CCCN(C)C)ccc2O[C@H]1CN(C)Cc1ccc(Oc2ccccc2)cc1,5.0[16.7 µM]
Cc1[nH]c2ccccc2c1C(=O)c1c(N)[nH]c(C(=O)c2ccc(Br)cc2)c1-c1ccc(Br)cc1,2.5
CN1C(=O)c2cc(NC(=O)c3ccc(F)c(F)c3)ccc2OC[C@@H]2O[C@H](CC(=O)N[C@@H]3CCN(Cc4ccccc4)C3)CC[C@@H]21,44.0[16.7 µM]

# 3 entries from above, arranged by SMILES length, lowest first.
SMILES,Env fusion inh
CCCNC(=O)N1C[C@@H](O)COC[C@H]2O[C@@H](CC(=O)N3CCC(Cc4ccccc4)CC3)CC[C@@H]21,8.4[16.7 µM]
O=C(C[C@H]1C[C@H]2c3cc(NC(=O)c4ccc5c(c4)OCO5)ccc3O[C@H]2[C@H](CO)O1)NCc1cccnc1,-12.8[16.7 µM]
C[C@@H]1CN([C@@H](C)CO)C(=O)c2cc(NC(=O)CCCN(C)C)ccc2O[C@H]1CN(C)Cc1ccc(Oc2ccccc2)cc1,5.0[16.7 µM]

# The listing picks up, starting six compounds before the break.
SMILES,Env fusion inh
CCCNC(=O)N1C[C@@H](O)COC[C@H]2O[C@@H](CC(=O)N3CCC(Cc4ccccc4)CC3)CC[C@@H]21,8.4[16.7 µM]
CCCC(=O)Nc1ccc2c(c1)OC[C@H](C)N(Cc1ccccn1)C[C@@H](C)[C@@H](OC)CN(C)C2=O,4.2[16.7 µM]
CCCN(C)C[C@@H]1Oc2cc(-c3ccccc3C)ccc2S(=O)(=O)N([C@@H](C)CO)C[C@H]1C,-10.8[16.7 µM]
C[C@@H]1CN([C@@H](C)CO)C(=O)c2cc(NC(=O)CCCN(C)C)ccc2O[C@H]1CN(C)Cc1ccc(Oc2ccccc2)cc1,5.0[16.7 µM]
Cc1[nH]c2ccccc2c1C(=O)c1c(N)[nH]c(C(=O)c2ccc(Br)cc2)c1-c1ccc(Br)cc1,2.5
CN1C(=O)c2cc(NC(=O)c3ccc(F)c(F)c3)ccc2OC[C@@H]2O[C@H](CC(=O)N[C@@H]3CCN(Cc4ccccc4)C3)CC[C@@H]21,44.0[16.7 µM]
O=C(O)C[C@@H]1C=C[C@@H](NC(=O)c2ccccc2F)[C@H](CO)O1,33.3[16.7 µM]
CN1CCN(C(=O)C[C@@H]2CC[C@@H]3[C@H](COC[C@H](O)CN3C(=O)Cc3ccccc3)O2)CC1,-9.3[16.7 µM]
C[C@@H]1CN([C@H](C)CO)C(=O)c2cc(NS(=O)(=O)c3ccccc3)ccc2O[C@H]1CN(C)C(=O)Nc1ccc(F)cc1,-20.2[16.7 µM]
C[C@H](CO)N1C[C@H](C)[C@H](CN(C)Cc2ccc(C(F)(F)F)cc2)Oc2ccc(NC(=O)Nc3ccc(F)cc3)cc2CC1=O,0.1[16.7 µM]
CC1CCN(C(=O)c2ncn3c2C(=O)NC[C@@H]3C)CC1,101.2*
COc1ccccc1C(=O)Nc1ccc2c(c1)C(=O)N(C)C[C@H](OC)[C@H](C)CN(C)[C@@H](C)CO2,2.7[16.7 µM]
N[C@H]1CC[C@@H](CCn2cc(-c3ccccn3)nn2)O[C@H]1CO,-16.6[16.7 µM]
C[C@H](CO)N1C[C@H](C)[C@@H](CN(C)S(C)(=O)=O)Oc2ncc(C3=CCCCC3)cc2C1=O,6.9[16.7 µM]
CO[C@H]1CN(C)C(=O)c2ccc(NS(=O)(=O)c3ccccc3F)cc2OC[C@@H](C)NC[C@@H]1C,-4.9[16.7 µM]
O=C(C[C@H]1C[C@H]2c3cc(NC(=O)C4CCC4)ccc3O[C@H]2[C@@H](CO)O1)NC1CCCC1,-13.8[16.7 µM]
C[C@@H]1CN([C@@H](C)CO)C(=O)c2ccccc2-c2ccccc2CO[C@H]1CN(C)S(=O)(=O)c1ccc(C(F)(F)F)cc1,19.9[16.7 µM]
CC(C)NC(=O)N(C)C[C@H]1OCCCC[C@H](C)Oc2ccc(NC(=O)C3CCCCC3)cc2C(=O)N([C@H](C)CO)C[C@H]1C,1.6[16.7 µM]
Cc1noc(C)c1S(=O)(=O)N1CCCc2nc(-c3ccc(F)cc3)ccc21,-5.8
COc1ccccc1-c1ccccc1[C@H]1[C@@H](CO)N(C(=O)CN(C)C)[C@H]1C#N,-17.7[16.7 µM]
O=C(N[C@H](Cc1ccccc1)C(=O)N1CCCN(Cc2cccs2)CC1)[C@H]1O[C@@H](n2ccc(=O)[nH]c2=O)[C@H](O)[C@@H]1O,1.4
COC(=O)[C@]12C[C@H](CC(=O)NCCCN3CCCC3=O)C(=O)N(Cc3ccccc3)C1=C[C@H](C(C)(C)C)O[C@@H]2C,9.4
C[C@@H]1CCCCO[C@@H](CN(C)C(=O)Nc2ccccc2)[C@@H](C)CN([C@@H](C)CO)C(=O)c2cc(NC(=O)Nc3cccc4ccccc34)ccc2O1,5.6[16.7 µM]
Cc1ccc(S(=O)(=O)Nc2ccc3c(c2)CC(=O)N([C@H](C)CO)C[C@@H](C)[C@H](CN(C)Cc2ccc(C(F)(F)F)cc2)O3)cc1,8.6[16.7 µM]
C[C@@H]1CCCCO[C@H](CN(C)C)[C@H](C)CN([C@@H](C)CO)C(=O)c2cc(NC(=O)c3ccncc3)ccc2O1,10.4[16.7 µM]
CC(C)NC(=O)Nc1ccc2c(c1)CC(=O)N([C@@H](C)CO)C[C@@H](C)[C@H](CN(C)C)O2,0.2[16.7 µM]
CC(C)NC(=O)Nc1cccc2c1O[C@H](CN(C)C)[C@H](C)CN([C@@H](C)CO)C2=O,23.5[16.7 µM]
CC(C)NC(=O)Nc1ccc2c(c1)C(=O)N([C@@H](C)CO)C[C@@H](C)[C@H](CN(C)CC1CCCCC1)OCCCC[C@@H](C)O2,-5.3[16.7 µM]
CO[C@@H]1CN(C)C(=O)c2cc(NC(=O)C3CC3)ccc2OC[C@@H](C)N(CCc2ccccc2)C[C@@H]1C,-10.5[16.7 µM]
CCCCNc1ccc2c(c1)OC[C@@H](Cc1ccccc1)NS2(=O)=O,-14.2
CCC(=O)N1CC2(C1)CN(Cc1ccc(Cl)cc1)[C@@H](CO)c1[nH]c3cc(OC)ccc3c12,-219.4[16.7 µM]

# Next part.
SMILES,Env fusion inh
CCC(=O)N[C@@H]1CC[C@H](CCn2cc(-c3cccc(OC)c3)nn2)O[C@@H]1CO,12.5[16.7 µM]
CO[C@@H]1CN(C)C(=O)c2cc(NC(=O)c3ccccc3F)ccc2OC[C@H](C)N(C(C)=O)C[C@@H]1C,0.5[16.7 µM]
CC(C)NC(=O)N(C)C[C@H]1OCCCC[C@H](C)Oc2ccc(NC(=O)CCC(F)(F)F)cc2C(=O)N([C@H](C)CO)C[C@H]1C,-4.5[16.7 µM]
COC(=O)C1=C(C)N(C)C(=NCC2CC2)NC1c1ccccc1C(F)(F)F (stereo unspecified),-19.2
COc1ccc(NC(=O)Nc2ccc3c(c2)C(=O)N([C@@H](C)CO)C[C@@H](C)[C@H](CN(C)C)OCCCC[C@@H](C)O3)cc1,14.1[16.7 µM]
O=C(NCC[C@H]1CC[C@H](NS(=O)(=O)Cc2ccccc2)[C@H](CO)O1)C1CCC1,-4.7[16.7 µM]
O=C(C(=O)N1CCC(CNS(=O)(=O)c2ccc(OC(F)(F)F)cc2)CC1)c1cc2ccccc2o1,13.0
C[C@H](O)C#Cc1cnc2c(c1)C(=O)N([C@H](C)CO)C[C@@H](C)[C@H](CN(C)C(=O)Cc1ccncc1)O2,-10.3[16.7 µM]
O=C(C[C@@H]1C[C@H]2c3cc(NS(=O)(=O)c4ccccc4)ccc3O[C@H]2[C@H](CO)O1)N1CCOCC1,-17.6[16.7 µM]
CC(=O)N1Cc2cc(C(=O)NCc3cc(F)cc(F)c3)nc(-c3cccc(C4=CCCC4)c3)c2[C@H]1CCO,26.8[16.7 µM]
COC(=O)[C@]12C[C@H](CC(=O)NCc3cccs3)C(=O)N(CCc3ccc(OC)c(OC)c3)C1=C[C@H](C(C)(C)C)O[C@@H]2C,22.4
O=C(C[C@@H]1CC[C@@H]2NC[C@@H](O)COC[C@H]2O1)NCCc1ccncc1,24.8[16.7 µM]
CC(C)NC(=O)Nc1ccc2c(c1)CC(=O)N([C@H](C)CO)C[C@H](C)[C@@H](CN(C)Cc1ccc3c(c1)OCO3)O2,2.3[16.7 µM]
COc1ccc(-c2cccc(-c3nc(C(=O)N(C)C)cc4c3[C@H](CCO)N([S@@](=O)C(C)(C)C)C4)c2)cc1,1.1[16.7 µM]
CCOC(=O)N1CCN(C(=O)C[C@H]2C[C@@]3(C(=O)OC)C(=C[C@H](C(C)(C)C)O[C@@H]3C)N(Cc3ccc4c(c3)OCO4)C2=O)CC1,-4.9
Cc1ccccc1S(=O)(=O)N(C)C[C@H]1OCc2cn(nn2)CCCC(=O)N([C@@H](C)CO)C[C@H]1C,9.4[16.7 µM]
Cc1noc(C)c1S(=O)(=O)Nc1ccc2c(c1)C(=O)N([C@H](C)CO)C[C@@H](C)[C@H](CN(C)S(=O)(=O)c1cccs1)OCCCC[C@@H](C)O2,-16.4[16.7 µM]
CO[C@H]1CN(C)C(=O)c2ccc(NS(C)(=O)=O)cc2OC[C@@H](C)N(Cc2ccccn2)C[C@@H]1C,5.3[16.7 µM]

# Some of these compounds in order of their number in Env fusion inh, high to low.
structure	Env fusion inh
COC(=O)[C@]12C[C@H](CC(=O)NCc3cccs3)C(=O)N(CCc3ccc(OC)c(OC)c3)C1=C[C@H](C(C)(C)C)O[C@@H]2C	22.4
O=C(C(=O)N1CCC(CNS(=O)(=O)c2ccc(OC(F)(F)F)cc2)CC1)c1cc2ccccc2o1	13.0
CCOC(=O)N1CCN(C(=O)C[C@H]2C[C@@]3(C(=O)OC)C(=C[C@H](C(C)(C)C)O[C@@H]3C)N(Cc3ccc4c(c3)OCO4)C2=O)CC1	-4.9
COC(=O)C1=C(C)N(C)C(=NCC2CC2)NC1c1ccccc1C(F)(F)F (stereo unspecified)	-19.2
